Screens deposited in PubChem by National Center for Advancing Translational Sciences (NCATS).
Menin-MLL FL inh – qHTS Assay for Inhibitors Targeting the Menin-MLL Interaction in MLL Related Leukemias: Competition With Fluorescein Labeled MLL-derived Peptide; Fluorescence polarization, fluorescein-MLL peptide displacement from menin; FP activity change, % at 61.4 µM; 290,000 tested, under 10 active; AID 1766, 2009; inconclusive = falling polarisation curve, or a change in total fluorescence; inactive = total fluorescence flat and polarisation flat or rising; no compound was filed as active; the % refers to the polarisation; negative = inhibition;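 further: % of control where 0% means no effect; inhibitors lower the polarisation; unlabelled MLL peptide was the positive control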
CtBP-E1A inh – qHTS Assay for Inhibitors of the CtBP/E1A Interaction | AID 651724, 2012 | AlphaScreen GST-E1A/His-CtBP binding, 1536-well; active compounds read low; control for the full effect not named in the record | 340,000 tested, 0.49% active | activity change, % (concentration not given with the values) | CtBP / adenovirus E1A interaction (AlphaScreen); in the data active means activity change below about -65%; inconclusive means about -30% to -65%; inactive means above about -30%; further: on the % scale 0 is the no-effect control and ±100 the full control effect
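Protein mix (5X: 125 nM each GST-E1A, His-CtBP) was incubated with pinned compound 2 h at 37 deg C in dark, in 50 mM Tris pH 8.0 buffer with 300 mM NaCl. Glutathione donor and nickel acceptor beads followed; AlphaScreen signal read after 1 h.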
ClpP mod – qHTS Assay for Activators of ClpP | purified B. subtilis ClpP, FRET peptide cleavage, 20 min | ATP-dependent Clp protease proteolytic subunit (Bacillus subtilis (strain 168)), P80244 | Potency, µM (titrated, usually from 57.5 µM), for the others: top-dose activity change, negative = active | 340,000 tested, 1.9% active | AID 651965, 2013; active = well fitted falling curve with a large enough effect; inconclusive = small, poorly fitted or top-dose-only effect; inactive = no such curve, though single readings can be large or run the other way; further: potency means the concentration at half of the fitted maximal effect; the source files actives as falling curves though it sought activators and does not explain the sign; nearly all actives have a fitted effect of over 65% in size; many hits overshoot -100%
Target sequence (P80244 whole entry, looked up): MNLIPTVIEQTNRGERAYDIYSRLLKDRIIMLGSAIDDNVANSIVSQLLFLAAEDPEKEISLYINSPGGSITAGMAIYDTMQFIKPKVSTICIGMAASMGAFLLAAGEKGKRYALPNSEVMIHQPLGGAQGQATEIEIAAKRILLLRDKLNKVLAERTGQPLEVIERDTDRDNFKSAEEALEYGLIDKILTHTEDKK
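ClpP 10 microg/mL final, pH 8 Tris/KCl buffer with BSA, glycerol, Tween-20; compound pinned in; FRET-FV substrate; RT 20 min; Ex320/Em430; ΔFRET vs ADEP 5.8 microM, DMSO, no enzyme.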
gsp antag – qHTS for Antagonists of gsp, the Etiologic Mutation Responsible for Fibrous Dysplasia/McCune-Albright Syndrome: qHTS. Potency, µM (titrated, usually from 76.9 µM), for the others: top-dose activity change, negative = inhibition, most hits filed as inhibitors. AID 624288, 2012. 340,000 tested, 0.4% active. gsp-mutant cells, cAMP HTRF, 30 min; control for the full effect not named in the record; active = falling curve of any shape with a large fitted effect; inconclusive = falling curve, mostly with a smaller effect; inactive = flat or rising curve; cell line not stated here;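 further: intracellular cAMP measured with PDE inhibitor Ro 20-1724 present during compound exposure; potency means the concentration at half of the fitted maximal effect; on the % scale 0 is the no-effect control and ±100 the full control effect; nearly all actives have a fitted effect of over 65% in size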
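Measurement of cellular cAMP by homogeneous time-resolved fluorescence following a 30 min compound exposure at 37C. The PDE inhibitor […] was present throughout; the assay buffer was DPBS with 0.05% BSA and 0.005% Tween 20.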
Sfp inh – qHTS Assay for Inhibitors of Bacillus subtilis Sfp phosphopantetheinyl transferase (PPTase). 4'-phosphopantetheinyl transferase ffp (Bacillus subtilis), Q9F4F7. Biochemical Sfp PPTase activity, qHTS. Potency, µM, without a hit: max response, negative = inhibition, actives largely listed as inhibitors. 310,000 tested, 3.5% active. AID 1490, 2009; active means well fitted inhibition curve with a large enough effect; inconclusive means small, poorly fitted or top-dose-only effect, or another doubt; inactive means no such curve, though single readings can be large or run the other way;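 further: the enzyme is Sfp with the accession as filed and its product quenches rhodamine fluorescence; potency means the concentration at half of the fitted maximal effect; 0% = enzyme reaction without inhibitor and -100% = no enzyme wells; top concentration of the series not given in the record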
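Step 1, compound plus 15 nM Sfp-PPTase, 15 min, room temperature. Step 2, add rhodamine-CoA (5 uM) and BHQ-2-YbbR (12.5 uM). Step 3, read 525/598 nm fluorescence at 0 and 30 min.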
gsp ag – qHTS for Agonist of gsp, the Etiologic Mutation Responsible for Fibrous Dysplasia/McCune-Albright Syndrome: qHTS; Potency, µM (titrated, usually from 76.9 µM), for the others: top-dose activation (cAMP increase), usual class: activators; AID 624287, 2012; gsp mutant cells, cAMP HTRF, 30 min; control for the full effect not named in the record; 340,000 tested, 0.13% active; active = well fitted activation curve with a large enough effect; inconclusive = small, poorly fitted or top-dose-only effect, or another doubt; inactive = no such curve, though single readings can be large or run the other way; cell line not stated here;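 further: phosphodiesterase inhibitor Ro 20-1724 added with compounds to block cAMP breakdown; potency means the concentration at half of the fitted maximal effect; nearly all actives have a fitted effect of over 60% in size; about a fifth of the inactives were tested at one dose only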
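Cells stably selected in G418 were plated at 2000/well, grown 16-24 hr, then given compounds in DMSO with the PDE inhibitor […] (300 uM solution added) for 30 min at 37C; cAMP was read by HTRF.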
TRPV1 PAM – HTS Assay for Compounds that Act as Potentiators of the Vanilloid Receptor 1; Transient receptor potential cation channel subfamily V member 1 (Homo sapiens), Q8NER1; TRPV1-expressing cells, Fluo-8 calcium influx, capsaicin EC20 potentiation; host cell line not named in the record; control for the full effect not named in the record; potentiation, % at 8.33 µM; 320,000 tested, 0.02% active; AID 540277, 2011; active means potentiation above 80%; inconclusive means 30% to 80%; inactive means below 30%; further: 0% is about no effect
Target sequence (Q8NER1 whole entry, looked up): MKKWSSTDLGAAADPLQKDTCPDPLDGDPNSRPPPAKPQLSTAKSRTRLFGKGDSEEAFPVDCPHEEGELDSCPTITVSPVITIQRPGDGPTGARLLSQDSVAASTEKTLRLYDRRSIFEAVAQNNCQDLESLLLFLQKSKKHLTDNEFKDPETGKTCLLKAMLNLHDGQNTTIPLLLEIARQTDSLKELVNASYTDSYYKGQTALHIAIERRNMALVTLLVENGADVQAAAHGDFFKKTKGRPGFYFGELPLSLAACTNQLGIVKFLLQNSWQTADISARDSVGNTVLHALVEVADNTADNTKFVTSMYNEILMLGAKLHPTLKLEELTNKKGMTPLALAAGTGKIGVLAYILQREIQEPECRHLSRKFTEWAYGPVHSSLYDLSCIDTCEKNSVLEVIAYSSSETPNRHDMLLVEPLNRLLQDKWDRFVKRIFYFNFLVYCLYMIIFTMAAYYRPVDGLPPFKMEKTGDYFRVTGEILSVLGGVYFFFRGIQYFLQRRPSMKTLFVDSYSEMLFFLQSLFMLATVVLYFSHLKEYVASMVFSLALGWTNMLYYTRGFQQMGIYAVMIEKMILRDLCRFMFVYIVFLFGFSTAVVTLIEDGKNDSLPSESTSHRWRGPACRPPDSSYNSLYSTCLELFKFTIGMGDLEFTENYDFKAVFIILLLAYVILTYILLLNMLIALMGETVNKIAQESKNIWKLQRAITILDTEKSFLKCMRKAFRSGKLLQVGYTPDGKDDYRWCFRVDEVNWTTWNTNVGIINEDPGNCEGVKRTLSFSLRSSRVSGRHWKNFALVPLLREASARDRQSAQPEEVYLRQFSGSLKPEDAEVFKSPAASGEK
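Cells expressing TRPV1 were dye-loaded with Fluo-8 and read kinetically: 10 s baseline, 3 min after compound (agonist portion), then 2 min after EC20 capsaicin (allosteric enhancer portion). Calcium-bound dye fluorescence at 480/520 nm.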
* marks the source's active call; other numbers are inactive results; ? = inconclusive; . = not tested or not shown; [ ] = another dose, or the depositor's remark.

SMILES	Menin-MLL FL inh	CtBP-E1A inh	ClpP mod	gsp antag	Sfp inh	gsp ag	TRPV1 PAM
CCOC(=O)c1ccc(OCc2nc(-c3cccs3)no2)cc1	1.3	10.0	1.7%	-17.7%	?	13.5%	7.1
COc1ccc(CCNC(=O)COC(=O)CNS(=O)(=O)c2ccc(SC)c([N+](=O)[O-])c2)cc1	.	6.6	0.1%	-16.7%	.	11.4%	-9.3
CCOC(=O)c1ccc(Oc2nc(NC)nc(Nc3ccccc3)n2)cc1	2.8	0.4	-0.6%	3.4%	12.9%	?	1.8
COc1cc(-c2n[nH]c(=S)n2-c2ccc(Br)cc2)cc(OC)c1OC	-3.4	3.5	-3.0%	-32.0%	-3.3%	?	-3.2
O=C(NNc1ccccc1)C(=O)N1CCCCC1	5.4	2.3	-0.4%	-7.1%	7.9%	?	-2.9
CC1CCCN(CCCNC(=O)c2ccc3c(c2)N(Cc2cccc(Cl)c2)C(=O)c2ccccc2S3=O)C1 (stereo not drawn)	.	-1.2	-0.3%	.	.	-10.9%	.
O=C(Nc1ccccc1C(=O)N1CCOCC1)C1CCCO1 (stereo not drawn)	2.4	4.1	1.0%	-3.7%	19.1%	?	11.9
CSc1n[nH]c(=O)n1-c1ccc(Cl)cc1	-2.4	-0.9	-0.7%	-2.7%	8.5%	11.2%[15.4 µM]	-5.9
COc1cc([N+](=O)[O-])ccc1NC(=O)Cc1ccccc1	-6.0	-7.6	?	3.1%	20.4%	-7.1%[15.4 µM]	-4.8
COc1ccc(-c2nn(CC(=O)N(C)C)c(=O)c3ccccc23)cc1	-0.8	5.2	?	0.3%	13.8%	13.8%	0.5
O=C(CSc1nnc(-c2ccncc2)n1-c1ccccc1)N1CCN(c2ccc(Cl)cc2)CC1	0.8	25.9	1.3%	7.5%	17.5%	-58.1%[inhibitor]	19.3
CCOc1ccc(C(=O)Oc2ccc(NC(C)=O)cc2)cc1	0.7	.	.	.	3.6%	.	18.8
CCOc1ccc(NC(=O)CSc2nc3ccccc3c(=O)n2CCNC(C)=O)cc1	-0.9	5.5	-0.3%	4.8%	7.0%	-2.4%	5.4
O=C(CN1C(=O)c2ccccc2C1=O)N1CCN(C2c3ccccc3-c3ccccc32)CC1	0.1	6.4	-1.0%	-16.0%	9.4%	29.1%	10.8
Cc1ccc(N=Cc2sc(O)c3ccccc23)cc1	?	17.9	1.0%	-4.9%	31.6µM*	11.1%	-2.8
COc1ccc(NC(=O)CC2SC(N3CCCC3)=NC2=O)cc1Cl (stereo not drawn)	.	8.1	0.2%	1.8%	.	-13.9%	.
O=C(Nc1ccccc1)N1CCN(Cc2ccc(Cl)cc2)CC1	2.5	.	2.3%	-19.7%	15.0%	-7.2%	-8.4
COc1ccc(S(=O)(=O)N2CCN(CC(O)COc3ccc(CC#N)cc3)CC2)cc1OC (stereo not drawn)	-3.7	2.2	.	-2.2%	0.8%	14.0%[15.4 µM]	3.1
Cc1cn(C2CCCCC2)c(=O)[nH]c1=O	.	-4.9	-2.2%	5.1%	.	-0.5%	.
OCC[C@@H]1C[C@H](O)[C@@H](O)[C@@]2(Cc3ccccc3CCO2)O1	-0.3	4.0	-0.7%	10.6%	22.1%	-0.3%	8.1
Cc1ccc(C(=O)OCC(=O)Nc2ccc(C)c(S(=O)(=O)N3CCCCC3)c2)c(O)c1	.	28.5	-3.5%	.	.	-82.0%[inhibitor]	.
COc1ccc2nc(N3C(=O)CC(Cc4ccc(C)cc4)C3=O)sc2c1 (stereo not drawn)	1.1	1.6	-1.4%	-8.9%	-0.8%	6.9%[15.4 µM]	10.6
COc1ccc(NC(=O)C2CCN(S(C)(=O)=O)CC2)cc1Cl	3.5	-1.8	-1.1%	6.0%	0.6%	?	-5.8
Cc1cc2cc(CNS(=O)(=O)N(C)C)ccc2[nH]1	-11.0	0.0	-8.5%	5.0%	-13.1%	?	-9.0
O=C(CN(C(=O)c1csnn1)c1cccc(Cl)c1)NC1CCCC1	.	-1.4	0.6%	-9.7%	5.9%	13.2%[15.4 µM]	-2.4
SMILES	Menin-MLL FL inh	CtBP-E1A inh	ClpP mod	gsp antag	Sfp inh	gsp ag	TRPV1 PAM
CCOC(=O)c1c(NC(=O)Nc2ccc(C)cc2)sc2c1CCN(C)C2	13.4	-1.5	.	2.3%	11.1%	-11.3%[15.4 µM]	.
Cc1ccccc1NC1=NCC(c2ccc([N+](=O)[O-])cc2)S1 (stereo not drawn)	1.2	-2.0	.	.	1.8%	13.6%[15.4 µM]	10.3
Cc1ccc(C(=O)Nc2ccc([N+](=O)[O-])cn2)o1	.	2.5	0.5%	2.7%	1.1%	?	-37.4
O=[N+]([O-])c1cccc(-c2ccn[nH]2)c1	6.2	.	-1.1%	7.2%	11.1%	?	8.3
Cc1cccc(NC(=O)Cc2nc(-c3c[nH]c(C(=O)N4CCCC4)c3)cs2)c1	.	-8.7	-1.6%	-10.0%	.	-24.6%	7.7
CCN1CCN(c2ccc(NC(=O)COc3ccc(Cl)cc3C)cc2)CC1	.	-2.7	-0.1%	6.4%	.	-53.6%[inhibitor]	.
COc1cc(NC(=O)CCc2nnc3ccc(N4CCCCC4)nn23)cc(OC)c1OC	.	7.0	0.8%	5.6%	5.9%	29.4%	-11.8
C=CCNc1oc(-c2cccs2)nc1C#N	7.5	-7.3	25.2%	6.8%	8.4%	-1.2%	-20.6
CC(=O)N1CCN(C(=O)CN2C(=O)NC(C)(c3ccc4ccccc4c3)C2=O)CC1 (stereo not drawn)	.	-2.8	-2.4%	4.5%	.	0.0%	14.8
Cc1ccc(NCC(=O)N/N=C\c2ccc([N+](=O)[O-])o2)cc1	-1.6	-9.1	-1.7%	-2.2%	5.9%	4.0%	9.9
COC(=O)c1ccc(/C=N/NC(=O)C2CC(=O)N(c3ccc(F)cc3)C2)cc1 (stereo not drawn)	.	-3.8	2.0%	-4.1%	9.6%	19.9%	-1.9
CC1=NN(/C(=N\c2nnc(C)s2)Nc2ccccc2)[C@H](c2cccc3ccccc23)S1	-1.7	-3.8	-0.6%	-29.7%	-25.7%	-4.5%	?
CN(CC(=O)Nc1cccc(F)c1)C(=O)CSc1ccccc1	.	3.8	-0.3%	-3.4%	.	4.8%	-13.8
CN1/C(=C/C=C(/C#N)C(N)=O)C(C)(C)c2ccccc21	?	?	1.0%	20.3%	15.5%	-21.2%	.
Cn1nc(-c2ccccc2)c(CO)c1Sc1ccccc1	-9.3	2.7	.	-6.1%	5.9%	10.2%[15.4 µM]	-4.2
Cc1ccccc1NS(=O)(=O)c1ccc(C(=O)NCC(C)(C)N2CCOCC2)cc1	.	12.2	0.4%	9.0%	.	-8.4%	8.3
Cc1ccc2cc(C(c3nnnn3Cc3ccccc3)N3CCc4ccccc43)c(=O)[nH]c2c1 (stereo not drawn)	0.6	0.2	-4.9%	-4.2%	-11.1%	4.9%	4.9
CCC(CC)CN1CCN=C1Nc1ccccc1	.	-4.7	-1.7%	12.0%	.	.	-15.7
COC(=O)c1cc(OC)c(OC)cc1NC(=S)N1CCN(c2ccccc2)CC1	-2.0	5.7	-0.8%	-3.2%	1.4%	9.8%	4.5
CN(C(=O)CC1C(=O)NCCN1Cc1ccc(F)cc1)C1CCOCC1 (stereo not drawn)	?	-10.4	.	3.9%	9.7%	-6.5%[15.4 µM]	1.5
O=C(COc1ccccc1)NNC(=O)c1cc2ccccc2o1	1.0	-5.0	-1.2%	0.6%	3.7%	-0.7%	2.1
O=C(O)c1cccc(Cn2cc(Cl)cn2)c1	-0.3	-1.4	-0.7%	5.7%	8.5%	-9.8%	3.9
Cc1cc2nc(C(F)(F)F)[nH]c(=O)n2n1	5.5	-1.7	-3.8%	-3.2%	1.9%	-22.2%	-10.4
Cc1ncc(C[n+]2csc(C)c2C)c(N)n1	-0.1	.	.	11.7%	-4.5%	13.4%[15.4 µM]	-13.2
Cn1cnnc1SCC(=O)NNC(=O)COc1ccc(Br)cc1	0.5	-4.9	.	.	18.5%	-0.7%[15.4 µM]	15.1
SMILES	Menin-MLL FL inh	CtBP-E1A inh	ClpP mod	gsp antag	Sfp inh	gsp ag	TRPV1 PAM
COc1ccccc1N(C)S(=O)(=O)c1ccc(C(=O)OCC(=O)N(C(C)C)C(C)C)cc1	0.3	-8.2	.	-9.8%	2.4%	6.9%	-2.9
CCC(OCC(O)CN1CCN(CCN2C(=O)c3cccc4cccc(c34)C2=O)CC1)c1ccccc1 (stereo not drawn)	5.6	-23.0	-17.0%	8.5%	?	4.7%	7.7
O=C(CNc1ccc(F)cc1Cl)Nc1cccc(S(=O)(=O)N2CCCCC2)c1	.	0.2	0.8%	-13.9%	.	?	-0.3
O=C(NCc1ccccn1)C1CCN(Cc2cccc(OCc3ccccc3)c2)CC1	16.7	-7.6	2.5%	1.7%	-27.4%	-2.8%	-0.6
N#Cc1c2c(c(NCc3ccco3)n3c1nc1ccccc13)CCC2	4.5	0.0	?	-2.1%	9.2%	?	-11.0
Cc1ccc(OCC(=O)Nc2ccc(N3CCN(C(=O)c4ccco4)CC3)cc2)cc1C	-2.1	-1.4	1.8%	44.7µM*	-5.7%	1.2%[15.4 µM]	-12.6
COc1ccc(Nc2nnc(SCC(=O)NC3CCCC3)s2)cc1	.	-7.4	-1.5%	.	.	-8.9%	.
COC(=O)Cc1[nH]nc2c1C(c1cc(OC)c(OC)c(OC)c1)C(C#N)=C(N)O2 (stereo not drawn)	2.2	11.8	-1.5%	15.7%	3.0%	1.1%	-10.5
